Screening data from PubChem BioAssay.
YopH PTP inh: YopH tyrosine phosphatase inhibitors, primary screen, biochemical, fluorescence Ex485/Em525 | inhibition, %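 (about 10 µM by stock and volumes)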 | 140,000 tested, 0.16% active | AID 898, 2007;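 active = inhibition of 50% or more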;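 note: controls were vehicle for no effect and minimum signal wells for full effect; inactives centre near -20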
RecA intein inh: Mtb RecA intein splicing inhibitors, primary screen, biochemical, fluorescence, HTS. Protein RecA (Mycobacterium tuberculosis (strain ATCC 25618 / H37Rv)), P9WHJ3. inhibition, %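 (about 9 µM by stock and volumes)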. cell-free RecA intein splicing. 290,000 tested, 0.75% active. AID 2221, 2009; in the data active = inhibition above about 30%;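 note: 0% = vehicle wells and 100% = reference inhibitor control wells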
Target sequence (P9WHJ3 whole entry, looked up): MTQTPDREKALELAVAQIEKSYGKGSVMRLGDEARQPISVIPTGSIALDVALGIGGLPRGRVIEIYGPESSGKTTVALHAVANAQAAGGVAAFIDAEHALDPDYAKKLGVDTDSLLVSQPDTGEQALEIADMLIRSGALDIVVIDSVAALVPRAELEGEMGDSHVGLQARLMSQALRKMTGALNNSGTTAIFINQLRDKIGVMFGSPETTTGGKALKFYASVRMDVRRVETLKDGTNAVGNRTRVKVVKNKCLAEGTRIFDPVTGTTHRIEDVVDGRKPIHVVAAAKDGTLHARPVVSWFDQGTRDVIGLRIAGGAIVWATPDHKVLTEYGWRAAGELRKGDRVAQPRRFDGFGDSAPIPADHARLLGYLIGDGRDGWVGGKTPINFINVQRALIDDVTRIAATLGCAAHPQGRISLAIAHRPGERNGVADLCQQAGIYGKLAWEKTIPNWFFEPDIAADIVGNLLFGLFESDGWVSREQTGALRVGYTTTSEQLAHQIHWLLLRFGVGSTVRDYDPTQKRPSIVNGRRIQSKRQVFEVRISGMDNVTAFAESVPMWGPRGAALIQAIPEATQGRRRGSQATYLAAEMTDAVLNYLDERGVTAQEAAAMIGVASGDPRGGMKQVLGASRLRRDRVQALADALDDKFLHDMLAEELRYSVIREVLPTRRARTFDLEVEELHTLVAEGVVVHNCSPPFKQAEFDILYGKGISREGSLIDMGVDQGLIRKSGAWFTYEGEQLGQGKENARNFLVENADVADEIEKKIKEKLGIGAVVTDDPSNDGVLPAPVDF
Arbovirus anti: antivirals against arbovirus infection, primary screen, cell-based, full library, 10K replicate subset; arbovirus infection cell-based antiviral screen; inhibition, % at 10 µM; 200,000 tested, 0.37% active;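 active = inhibition from about 30%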;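 note: bluetongue infection of BSR cells; cell survival read as ATP light after 72 h; 0% = infected wells without compound and 100% = uninfected wells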
Mtb H37Rv: M. tuberculosis H37Rv growth inhibitors, H37Rv strain (AID 1626) | inhibition, % at 10 µM; hits with a dose series show IC50 in µM | M. tuberculosis H37Rv growth inhibition; higher % means a stronger effect | 220,000 tested, 0.95% active;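 active = confirmed in a dose series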;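 note: bacteria incubated seven days before Alamar blue readout; 0% = bacteria only wells and 100% = bacteria with antibiotic wells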
Mtb betalactam: beta-lactam sensitization of Mtb H37Rv, H37Rv | M. tuberculosis H37Rv growth with meropenem, percent inhibition; hits of this screen are not shown here | inhibition, % at 25 µM | 330,000 tested, 0.27% active | AID 434955, 2010;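 active = about 74% or more and at least 40 points above the plate without the antibiotic, then above 30% in a dose series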;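 note: growth measured after seven days incubation then overnight dye step; 0% = bacteria only wells and 100% = bacteria with antibiotic; twin plates without the antibiotic show which effects depend on it; some results filed as inactive read as strong as hits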
Arbovirus anti repeat: further read-out of Arbovirus anti, marked with its call; inhibition, %; measured here: 10K subset replicate screen; many hits read low in the repeat;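 first of two repeat runs on a subset; 0% = infected and 100% = uninfected wells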
Active calls of the source: *; x = not tested or not shown. The list is partial (hit frequency here may not be typical).

The opening eleven entries (preview)
SMILES | YopH PTP inh | RecA intein inh | Arbovirus anti | Mtb H37Rv | Mtb betalactam | others
COc1ccc(C(=O)c2cnc[nH]2)cc1 | x | 1.2 | x | -8% | 3
O=C(Nc1ccccc1N1CCOCC1)c1ccc(Br)o1 | -37 | 1.9 | 8 | 7% | 2
O=C(CSc1nnc(CNc2ccc(Cl)cc2)o1)Nc1nc2ccccc2s1 | -42 | 0.0 | 6 | -5% | 1
C(=N\NCc1ccccc1)/c1ccc2nccnc2c1 | x | 0.5 | x | -1% | -8
COc1ccc(C(=O)Nc2nnc(CCS(=O)(=O)c3ccc(C)cc3)s2)cc1 | x | -2.1 | 4 | -3% | 6
COc1cc(NC(=O)COC(=O)C=C(C)C)c(C)cc1[N+](=O)[O-] | x | -1.5 | 4 | 4% | -3
O=C(NNS(=O)(=O)c1ccccc1[N+](=O)[O-])c1cccc(Br)c1 | x | 3.9 | x | x | -8
CC(C)(C)n1cc(C(=O)c2ccccc2)cc1-c1ccccc1 | x | -1.1 | x | -2% | 6
CCCCC(C(=O)O)C(C)CC(=O)Nc1cccc(C(=O)O)c1 (configuration not stated) | -26 | 0.6 | 0 | -12% | 5
COc1ccc(CCNC(=O)C2CCN(S(=O)(=O)N3CCOCC3)CC2)cc1OC | -38 | -0.6 | 2 | 4% | -2
COc1ccccc1CN(C(=O)CCl)C(C(=O)NC1CCCCC1)c1ccncc1 (configuration not stated) | -8 | x | 23 | 3% | 4

The list itself, previewed entries included:
SMILES | YopH PTP inh | RecA intein inh | Arbovirus anti | Mtb H37Rv | Mtb betalactam | others
COc1ccc(C(=O)c2cnc[nH]2)cc1 | x | 1.2 | x | -8% | 3
O=C(Nc1ccccc1N1CCOCC1)c1ccc(Br)o1 | -37 | 1.9 | 8 | 7% | 2
O=C(CSc1nnc(CNc2ccc(Cl)cc2)o1)Nc1nc2ccccc2s1 | -42 | 0.0 | 6 | -5% | 1
C(=N\NCc1ccccc1)/c1ccc2nccnc2c1 | x | 0.5 | x | -1% | -8
COc1ccc(C(=O)Nc2nnc(CCS(=O)(=O)c3ccc(C)cc3)s2)cc1 | x | -2.1 | 4 | -3% | 6
COc1cc(NC(=O)COC(=O)C=C(C)C)c(C)cc1[N+](=O)[O-] | x | -1.5 | 4 | 4% | -3
O=C(NNS(=O)(=O)c1ccccc1[N+](=O)[O-])c1cccc(Br)c1 | x | 3.9 | x | x | -8
CC(C)(C)n1cc(C(=O)c2ccccc2)cc1-c1ccccc1 | x | -1.1 | x | -2% | 6
CCCCC(C(=O)O)C(C)CC(=O)Nc1cccc(C(=O)O)c1 (configuration not stated) | -26 | 0.6 | 0 | -12% | 5
COc1ccc(CCNC(=O)C2CCN(S(=O)(=O)N3CCOCC3)CC2)cc1OC | -38 | -0.6 | 2 | 4% | -2
COc1ccccc1CN(C(=O)CCl)C(C(=O)NC1CCCCC1)c1ccncc1 (configuration not stated) | -8 | x | 23 | 3% | 4
CC(=O)N1CCOCCOCCN(C(C)=O)CCOCC1 | x | x | -10 | -5% | -3

The final two records of the part above open the next one:
SMILES | YopH PTP inh | RecA intein inh | Arbovirus anti | Mtb H37Rv | Mtb betalactam | others
COc1ccccc1CN(C(=O)CCl)C(C(=O)NC1CCCCC1)c1ccncc1 (configuration not stated) | -8 | x | 23 | 3% | 4
CC(=O)N1CCOCCOCCN(C(C)=O)CCOCC1 | x | x | -10 | -5% | -3
CCOC(=O)C1CCN(C(=O)CCc2c(C)nc3cc(-c4ccc(OC)cc4OC)nn3c2C)CC1 | x | -2.6 | 5 | 17% | 43
Cc1cc(C(=O)NC(C)C2CCCO2)c(C)o1 (configuration not stated) | x | -0.3 | x | x | 0
NS(=O)(=O)c1ccc2c(c1)oc(=O)c1cc(S(N)(=O)=O)ccc12 | x | -1.7 | -2 | 2% | -9
OCCN(CCO)CC(O)COc1ccc(C23CC4CC(CC(C4)C2)C3)cc1 (configuration not stated) | -15 | 1.6 | -40 | 25% | 0
Clc1cccc(Oc2cnc3ccccc3n2)c1 | -43 | -0.8 | -3 | -5% | 15
CC(C)Cc1cc(C(=O)N2CCC(N3CCC(C(=O)NC4CC4)CC3)CC2)n[nH]1 | x | 5.9 | 1 | -7% | -5
COc1cccc(CN2C(=O)CCC2(C)C(=O)NC2CCCCCC2)c1 (configuration not stated) | -16 | -1.0 | 1 | -8% | 12
O=C(O)/C=C/c1ccccc1[N+](=O)[O-] | x | 0.4 | x | -15% | -13
CCN1C(=O)[C@@H]2[C@H](C1=O)[C@@H]1C(=O)Nc3ccccc3C(=O)N1[C@@H]2c1ccccc1 | x | 2.4 | x | x | -4
CCOc1ccc2nc(NC(=O)C3CCN(C(=O)c4ccco4)CC3)sc2c1 | x | -4.7 | x | x | 2
COC(=O)c1ccc(COc2ccc(/C=N/NC(=O)C(=O)Nc3ccc(OC)cc3)cc2OC)o1 | x | x | x | 1% | 2
CC(C)(C)NS(=O)(=O)c1ccc(NS(=O)(=O)c2ccc(F)cc2)cc1 | -50 | -2.0 | 8 | 0% | -14
COc1ccc(Br)cc1/C=C/C(=O)Nc1ccc2ccccc2c1 | -35 | 0.0 | 17 | 2% | 8
O=C(O)c1ccc2c(=O)n3c(nc2c1)/C(=C/c1cccc(Cl)c1Cl)CC3 | x | -0.5 | x | x | 2
CCOC(=O)c1ccc(NC(=O)CSc2nnc(CNc3ccc(C)cc3)n2C)cc1 | -31 | -1.8 | 4 | 44% | 46
CCn1cc(CN2CCCC(C(=O)c3ccc(-c4ccccc4)cc3)C2)cn1 (configuration not stated) | x | 2.6 | -19 | -19% | 42
O=C(NCCN1CCOCC1)c1cc2cc(Br)ccc2oc1=O | -7 | -3.3 | 3 | x | -8
CCn1nc(C)c(CNC(=O)CCc2nnc(Cc3c[nH]c4ccccc34)o2)c1C | x | 0.2 | 0 | 4% | -5
Cc1ccc([N+](=O)[O-])cc1S(=O)(=O)Nc1cccc(-c2ccc(N3CCCC3)nn2)c1 | x | 4.7 | x | x | -12
COc1ccc(/C=C2\N=C(SC)NC2=O)cc1 | 0 | 3.3 | -2 | -5% | -15
Cc1cccc(NC(=O)NCCN2CCCCC2)c1 | x | -3.7 | x | x | -4
COc1nnc(-c2ccc(C)c(S(=O)(=O)NCCO)c2)c2ccccc12 | -13 | -0.8 | -3 | -1% | -10 | Arbovirus anti repeat=4
O=C(c1ccc(N2CCOCC2)c([N+](=O)[O-])c1)N1CCCC(C(F)(F)F)C1 (configuration not stated) | x | -6.5 | x | x | 3
CC1CCN(C(=O)CSc2ccc(-c3cccc([N+](=O)[O-])c3)nn2)CC1 | x | -2.5 | 10 | 2% | 3
CC(C)(C)C(=O)NC1CC2CCCC(C1)N2C(=O)Nc1ccccc1Cl (configuration not stated) | x | -2.2 | x | x | -3
Cc1cc([N+](=O)[O-])ccc1NCc1ccccc1 | -45 | 2.3 | -10 | 7% | 1
CC(C)(C)n1nnnc1C(c1cccs1)N1CCN(c2ccccc2)CC1 (configuration not stated) | -37 | -2.3 | 5 | -7% | 2
Cc1cccc(-c2nc3c(s2)CCc2onc(-c4ccc(Br)cc4)c2-3)c1 | x | 18 | x | x | 23
COC(=O)c1ccccc1NC(=O)CSc1ccccc1 | -17 | 4.9 | -6 | -8% | 1
Cc1ccc(C(=O)NCc2ccccc2)c(F)c1F | x | -1.2 | -9 | 16% | 4
N#Cc1c(N2CCCCC2)nc(N)c2c(N)nc3c(c12)CC(CCl)O3 (configuration not stated) | x | -3.7 | -17 | -9% | 3
CC/C(=N\NC(=O)c1ccccc1Cl)c1ccc(Br)s1 | -30 | 0.2 | -4 | 6% | 5
O=C1Nc2ccc(F)cc2C12Nc1ccccc1-c1nnc(SCc3ccccc3Cl)nc1O2 (configuration not stated) | -21 | 6.6 | 8 | -5% | 1
Cc1nc(N2CCN(c3ccc(Cl)cc3)CC2)[nH]c(=O)c1C | x | -3.8 | x | x | -3
CCOC(=O)c1[nH]c(C)c(C(=O)N2CCCC(Nc3ccc(C)c(C)c3)C2)c1C (configuration not stated) | x | -4.3 | x | x | -4
CC12CN3CC(C)(CN(C1)C3c1ccc(Cl)cc1Cl)C2O (configuration not stated) | 12 | -0.5 | x | -9% | 6
COc1ccc(C(CC(=O)O)NC(=O)COc2ccccc2)cc1 (configuration not stated) | -34 | 0.3 | -10 | -14% | -8
CCOc1ccc(NC(=O)CN(c2cc(C)cc(C)c2)S(=O)(=O)c2c(C)noc2C)cc1 | -19 | -0.9 | 0 | -10% | -4 | Arbovirus anti repeat=2
Cc1ccc([N+](=O)[O-])cc1S(=O)(=O)NCC1COc2ccccc2O1 (configuration not stated) | x | 1.2 | x | x | 1
COc1ccc(NC(=O)c2ccco2)cc1S(=O)(=O)N1CCOCC1 | x | -3.1 | 13 | -3% | -3
Cc1cc(C)c(C(=O)CSc2n[nH]c(-c3ccncc3)n2)c(C)c1 | x | 1.1 | -4 | 4% | 6
Nn1c(SCC(=O)Nc2cccc(F)c2)nnc1C1CCCCC1 | -50 | -0.5 | 2 | -3% | 6
Cc1cc(C)n(-c2nc(O)cc(=O)[nH]2)n1 | -36 | -1.0 | -3 | -5% | 34
CCOc1ccc(NC(=S)N2CCN(S(=O)(=O)c3ccc(OC)cc3)CC2)cc1 | x | 1.0 | x | x | -2
CC(C)OC(=O)C(C)Nc1n[nH]c(=S)[nH]c1=O (configuration not stated) | x | -2.6 | 9 | -1% | x
COc1cnc(-c2ccccn2)nc1Oc1ccccc1Cl | -34 | 2.3 | -32 | -2% | 81
CCc1nc(SCc2nc3ccccc3[nH]2)c2oc3ccccc3c2n1 | 10 | -0.2 | -25 | 6% | 59
Cc1cccc(-c2c(NC(=O)c3ccco3)oc3ccc(Cl)cc3c2=O)c1 | x | -4.9 | x | x | 2
COCCN(C(=O)c1ccco1)c1nc(-c2ccccc2)cs1 | x | 5.3 | x | x | 5
O=C(c1cc(N2C(=O)C3C4CCC(C4)C3C2=O)ccc1Cl)N1CCCCCC1 (configuration not stated) | x | -0.7 | -1 | -6% | 0
CCOc1ccccc1NC(=S)Nn1cnnc1 | x | 1.6 | x | x | -4
C=CCN1C(=O)c2ccc(C(=O)N3CCN(S(=O)(=O)c4cc(C)ccc4C)CC3)cc2C1=O | x | 0.4 | x | x | -6
Cc1ccnc(NS(=O)(=O)c2ccc(NC(=O)c3cc(-c4ccccc4)nc4ccccc34)cc2)n1 | -32 | -0.9 | 8 | 8% | -1
O=C(NCc1ccc(N2CCCC2=O)cc1)c1cn(Cc2ccccc2)nn1 | -4 | 0.9 | 7 | 28% | 1
Cc1cc(C(=O)OCC(=O)N(CC(C)C)c2c(N)n(Cc3ccccc3)c(=O)[nH]c2=O)c2ccccc2n1 | x | -1.8 | x | x | -3
COc1ccc2cc(/C=N/NC(=O)CSCc3ccc([N+](=O)[O-])cc3)c(Cl)nc2c1 | -35 | -0.5 | -6 | -1% | 9
O=[N+]([O-])c1cc(C(F)(F)F)ccc1N1CCN(CCO)CC1 | x | -2.3 | 2 | -2% | 4
Cc1cc(C)c2nc(SCC(=O)NCC3CCCO3)c(C#N)cc2c1 (configuration not stated) | x | -2.2 | -11 | 4% | -12
NS(=O)(=O)c1cccc(NC(=O)CN2CCC(Cc3ccccc3)CC2)c1 | x | -1.7 | -28 | 4% | -11
Cc1cc(C=O)c(C)n1-c1ccc(NC2CCCCC2)c([N+](=O)[O-])c1 | 3 | 15 | -32 | x | 11
Remaining list, next part.
SMILES | YopH PTP inh | RecA intein inh | Arbovirus anti | Mtb H37Rv | Mtb betalactam | others
CCOc1ccc(NS(=O)(=O)c2ccc(C(=O)N(C)CC(=O)Nc3ccc(OC)cc3)cc2)cc1 | x | -1.7 | x | x | -12
COc1ccc2c(=O)c(C(=O)NCCc3ccccc3)c[nH]c2c1 | x | 0.4 | x | x | 3
COC(=O)c1ccc(C2C(C#N)=C(N)Oc3cc(N)ccc32)cc1 (configuration not stated) | x | -3.4 | x | x | 1
CCc1c(O)nc2sc3ccccc3n2c1=O | -35 | -0.7 | 9 | -5% | 0
CCn1c(=O)[nH]c2cc(C(=O)Nc3cc(C)cc(C)c3)ccc2c1=O | x | -2.2 | -9 | 1% | 12
CN(C)CCn1ccc(O)c(Cc2ccc(Cl)cc2)c1=O | x | 2.5 | x | x | -2
O=C(CN1N=C(c2ccccc2)CCC1=O)NCc1ccccc1 | x | 1.0 | -1 | 4% | -4
O=C(O)c1cc(NC(=O)c2ccc3c(c2)C(=O)N(Cc2ccccc2)C3=O)cc(C(=O)O)c1 | x | -2.4 | x | x | -4
CN1CCCN(Cc2cccc3ccccc23)CC1 | x | -4.1 | x | x | 7
O=S(=O)(NCc1ccccn1)c1ccc(Br)s1 | -54 | -0.9 | -3 | 9% | 4
O=C1c2ccccc2C(Nc2ccc(S(=O)(=O)N3CCCCC3)cc2)N1Cc1ccco1 (configuration not stated) | -50 | 8.1 | -17 | 2% | -9
